# Assay outcomes deposited in PubChem by several laboratories.
# FGF22 binding: binders of human FGF22 protein, primary screen, FGF22 synaptogenesis inhibitor project, biophysical, thermal shift, single point; Fibroblast growth factor 22 (Homo sapiens), Q9HCT0; recombinant FGF22 thermal shift, SYPRO orange fluorescence; percent of sucrose octasulfate shift, DMSO zero; 340,000 tested, 1.5% active; calls only at 9.99 µM;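 active means melting point raised past a set limit in the mean and every replicate; three in four hits are not shown here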
# Target sequence (Q9HCT0 whole entry, looked up): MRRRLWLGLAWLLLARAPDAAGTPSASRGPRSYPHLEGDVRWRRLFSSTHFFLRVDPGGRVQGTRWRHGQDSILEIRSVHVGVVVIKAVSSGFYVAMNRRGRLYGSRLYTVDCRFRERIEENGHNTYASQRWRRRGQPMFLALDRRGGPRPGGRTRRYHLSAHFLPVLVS
# Beta2AR agonist: beta2AR agonists driving receptor internalization, primary screen, cell-based, FAP fluorogen, flow cytometry. Beta-2 adrenergic receptor (Homo sapiens), P07550. Am2.2-beta2AR cells; reference of the scale not given here. response, % (test concentration not listed). 340,000 tested, 0.43% active;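 active means response above a set limit, near 3 SD of response in nonfluorescent compounds, cut at about 42% in these data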;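 further: stock transfer was 100 nL into about 11 µL; a reference agonist was the positive control; negative values mostly stem from fluorescent compounds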
# E coli growth: E. coli growth inhibition, primary screen, OD600 | Escherichia coli growth, 23 h; stronger effect = lower value | OD600 absorbance (concentration not given with the values) | 330,000 tested, 0.21% active;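 active means OD600 absorbance below the run mean of sample wells minus 3.6 SD, in any replicate, cut at about 0.56 in these data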;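 further: stock transfer was 300 nL into about 60 µL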
# Ecoli rRNA inh: reduced GFP signal of wild-type E. coli, primary screen, bacterial rRNA inhibitor project, GFP/RFP fluorescence, OD600, single point | E. coli WT GFP vs humanized-ribosome RFP mutants, 24 h; stronger effect = lower value; DMSO median 0, no signal -100 | GFP signal change (wild-type ribosome), % (test concentration not listed) | 350,000 tested, 1.6% active | AID 720706, 2013;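 active means significant combined selectivity score with lowered wild-type GFP, culture density cut under 30%, mutant RFP and density less affected; inactive means any of these conditions unmet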; further: one replicate is shown; some compounds called inactive have numbers as strong as hits
# UCH37 inh: inhibitors of human UCH37 deubiquitinase, primary screen, biochemical, Ub-AMC cleavage, fluorescence | purified proteasome/UCH37 | 330,000 tested, 0.33% active | inhibition, % (test concentration not listed) | Ubiquitin carboxyl-terminal hydrolase isozyme L5 (Homo sapiens), Q9Y5K5 | AID 588478, 2011;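 active means mean of two replicates above 20%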;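 further: 0% = compound-free wells with enzyme and 100% = wells lacking proteasome; stock transfer was 100 nL into about 20 µL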
# Target sequence (Q9Y5K5 whole entry, looked up): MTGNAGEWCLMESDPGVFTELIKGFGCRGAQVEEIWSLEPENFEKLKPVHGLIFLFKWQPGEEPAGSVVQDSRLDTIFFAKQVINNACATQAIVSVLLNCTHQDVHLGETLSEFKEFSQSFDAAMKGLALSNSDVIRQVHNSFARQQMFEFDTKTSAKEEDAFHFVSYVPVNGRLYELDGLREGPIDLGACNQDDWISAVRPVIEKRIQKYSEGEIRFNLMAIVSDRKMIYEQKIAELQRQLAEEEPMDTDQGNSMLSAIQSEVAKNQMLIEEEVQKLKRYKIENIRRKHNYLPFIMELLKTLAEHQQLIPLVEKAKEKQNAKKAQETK
#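 Material: Human UCH37 enzyme supplied as purified proteasome complex | Schedule: 30 min preincubation with enzyme, 25 min cleavage at room temperature | Detection: AMC fluorescence 355/460 nm | Measure: % inhibition of Ub-AMC cleavage fluorescence | Controls: Wells without proteasome as full block, compound-free enzyme plus substrate as uninhibited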
# HNF4A DNA FP: change in binding of human HNF4A to DNA, primary screen, biochemical, fluorescence polarization, FITC-DNA | 360,000 tested, 0.3% active | 1 h | Hepatocyte nuclear factor 4-alpha (Homo sapiens), P41235 | activity change, % at 10 µM | AID 1224865, 2016; in the data active means activity change above about 30%, passing the limit was not always enough;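 further: controls were the assay level and a saturating level of protein; the project sought stronger binding though the title names inhibitors; some compounds called inactive have numbers as strong as hits; positive values seem to mean higher polarization but the record does not say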
# ALR H2O2 inh: inhibitors of human ALR sulfhydryl oxidase, primary screen, biochemical, H2O2 detection, HRP-luminol luminescence, single point; purified ALR, DTT oxidation; inhibition, % (concentration not given with the values); 290,000 tested, 3.8% active;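 active means mean and each replicate at 75% or more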;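 further: stock transfer was 7.5 nL into about 7.5 µL; 0% = neutral wells and 100% = wells with inactivated enzyme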
# Target sequence (P55789 whole entry, looked up): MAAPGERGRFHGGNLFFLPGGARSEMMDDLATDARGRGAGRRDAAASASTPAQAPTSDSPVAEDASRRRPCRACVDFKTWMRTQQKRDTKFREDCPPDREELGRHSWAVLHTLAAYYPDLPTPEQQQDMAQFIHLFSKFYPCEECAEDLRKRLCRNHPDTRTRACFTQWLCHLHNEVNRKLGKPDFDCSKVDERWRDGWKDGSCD
# Ecoli rRNA inh OD600: also measured in Ecoli rRNA inh; calls as there; OD600 change, %; measured here: OD600 growth;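 optical density of the mix in the first replicate; 0 = DMSO median and -100 = no signal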
# Ecoli rRNA inh RFP: second read-out of Ecoli rRNA inh, no call of its own (marks repeat the call); RFP signal change, %; measured here: RFP humanized mutant strains;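 first replicate; 0 = DMSO median and -100 = no signal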
# An asterisk follows results filed as active; i = inactive; / = no result given; & = joins results of further samples. An excerpt; count on the stated rates, not on these rows.
SMILES,FGF22 binding,Beta2AR agonist,E coli growth,Ecoli rRNA inh,Ecoli rRNA inh OD600,Ecoli rRNA inh RFP,UCH37 inh,HNF4A DNA FP,ALR H2O2 inh
C[C@]12CC[C@H](O)CC1=CCC1C2CC[C@@]2(C)C1CC[C@@H]2NC(=O)[C@@H](N)Cc1ccccc1 (some centres not stated),i,14,0.66,7,-11,35,4.7,3.3,1
C=CCn1c(-c2ccccc2)n[nH]c1=S,/,-125,0.67,/,/,/,3.5,15,13
O=C(c1ccco1)N1CCN(C(=S)Nc2cc(F)cc(F)c2)CC1,i,-2,0.68,3,7,-1.4,1.7,1.3,2
COC(=O)[C@H](C)NC(=O)NCc1ccc(S(N)(=O)=O)cc1,i,-1,0.68,9,-2,-0.7,1.7,2.0,-11
O=C(c1ccccc1)N1CCC(CC2CC(c3cccc(Br)c3)=NO2)(C(=O)NCC2CCCCC2)CC1 (configuration not stated),/,-7,/,/,/,/,0.7,-6.4,-11
CCN(CC)S(=O)(=O)c1ccc(N2CC(C(=O)NC3(C)CCS(=O)(=O)C3)CC2=O)cc1 (configuration not stated),i,0,0.69,/,/,/,0.5,-1.1,-7
NS(=O)(=O)c1ccc(CCNCc2cccnc2)cc1,i,1,0.69,9,9,-2.0,3.1,4.1,-7
Cc1ccc(S(=O)(=O)NC(CC(=O)O)c2ccccc2)cc1 (configuration not stated),/,1,0.71,/,/,/,4.0,0.4,11
CC(C)C[C@@H](C(=O)NC1CC1)N1C(=O)N2CCc3c([nH]c4ccccc34)[C@@]2(C)C1=O,i,1,0.69,3,1,10,1.2,0.7,5
N#CC1(NC(=O)Cn2ncc(Cl)c(Cl)c2=O)CCCCC1,i,3,0.67,3,9,1.5,3.4,1.6,1
COc1ccc(-c2[nH]ncc2N=Nc2cc(C)cc(C)c2)cc1,i,-1,0.73,3,-4,4.4,6.9,3.7,1
C=CCn1cccc(C(=O)Nc2cc(OC)ccc2OC)c1=O,i,-6,0.65,-16,-6,-3.5,11,2.5,0
Cc1ccc(NC(=O)c2cc(-c3cccc(O)c3)on2)cc1C,i,6,0.73,-23,-24,-0.3,2.5,0.3,-9
CN(CC(CC(=O)O)c1ccccc1)S(=O)(=O)c1ccc(Br)cc1 (configuration not stated),i,9,0.72,-10,-11,-2.3,1.0,3.1,1
N#Cc1ccc(C2=CC(=O)C[C@H](c3ccc4c(c3)OCO4)C2)cc1,i,7,0.74,-16,-26,-24,-5.7,1.5,-11
CCNC(=S)NNC(=O)c1ccccc1OC(F)F,/,-5,0.68,/,/,/,3.8,3.3,33
CCN(CC)C(=O)C(C(=O)c1cccc([N+](=O)[O-])c1)n1cc(Cl)ccc1=O (configuration not stated),i,-4,0.7,17,19,0.3,4.3,4.2,-9
C#CC(CCN1CCCCC1)(OC)c1ccccc1 (configuration not stated),i,9,0.67,-4,-5,-2.5,2.6,-2.5,22
CSCCC(NC(=O)c1ccco1)C(=O)N1CCCC(C(F)(F)F)C1 (configuration not stated),i,-4,0.7,3,3,-3.0,0.6,-1.9,-9
C[C@H]1CN([C@@H](C)CO)S(=O)(=O)c2ccc(Br)cc2O[C@@H]1CN(C)Cc1cccc(F)c1,i,/,/,-23&-37,-24&-43,8.1&11,/,0.5,/

# Compound profiles, from the list above.
# `CC(C)C[C@@H](C(=O)NC1CC1)N1C(=O)N2CCc3c([nH]c4ccccc34)[C@@]2(C)C1=O` is listed as FGF22 binding = i; Beta2AR agonist = 1; E coli growth = 0.69; Ecoli rRNA inh = 3; Ecoli rRNA inh OD600 = 1; Ecoli rRNA inh RFP = 10; UCH37 inh = 1.2; HNF4A DNA FP = 0.7; ALR H2O2 inh = 5
# `CSCCC(NC(=O)c1ccco1)C(=O)N1CCCC(C(F)(F)F)C1` (configuration not stated) is listed as FGF22 binding = i; Beta2AR agonist = -4; E coli growth = 0.7; Ecoli rRNA inh = 3; Ecoli rRNA inh OD600 = 3; Ecoli rRNA inh RFP = -3.0; UCH37 inh = 0.6; HNF4A DNA FP = -1.9; ALR H2O2 inh = -9
# `CCN(CC)C(=O)C(C(=O)c1cccc([N+](=O)[O-])c1)n1cc(Cl)ccc1=O` (configuration not stated) is listed as FGF22 binding = i; Beta2AR agonist = -4; E coli growth = 0.7; Ecoli rRNA inh = 17; Ecoli rRNA inh OD600 = 19; Ecoli rRNA inh RFP = 0.3; UCH37 inh = 4.3; HNF4A DNA FP = 4.2; ALR H2O2 inh = -9

# Carrying on:
SMILES,FGF22 binding,Beta2AR agonist,E coli growth,Ecoli rRNA inh,Ecoli rRNA inh OD600,Ecoli rRNA inh RFP,UCH37 inh,HNF4A DNA FP,ALR H2O2 inh
CCOc1ccc2nc(NCCCNS(=O)(=O)c3ccc(F)cc3)c(C#N)cc2c1,i,-13,0.65,17,7,-1.1,-67,-3.1,/
Nc1ncnc2c1ccn2[C@H]1CN(Cc2ccc3c(c2)OCO3)C[C@@H](CO)O1,i,/,/,-6,-6,-6.2,/,-0.7,/
C/C(=N\Nc1ccc(C(F)(F)F)cc1[N+](=O)[O-])C(C)C,i,-6,/,-7,-12,-7.4,/,0.5,-8
CCOc1ccc(C2OCCC(C)O2)cc1OC (configuration not stated),i,1,0.65,0,1,0.9,0.1,-1.9,/
O=C(NCC1CCCO1)NC12CC3CC(CC(C3)C1)C2 (configuration not stated),/,1,0.67,/,/,/,2.9,1.3,7
Cc1ccc(S(=O)(=O)N2CCOC2CNC(=O)C(=O)NCc2ccccc2)cc1 (configuration not stated),i,-2,0.71,1,1,-1.7,4.2,1.2,-1
O=S(=O)(c1ccc(-c2ccccc2)cc1)N1CCOCC1,/,-3,0.74,/,/,/,1.3,5.7,1
Cc1ccc(-n2ncc3c(=O)n(CC(=O)N4CCN(c5ccccc5)CC4)cnc32)cc1,i,0,0.72,6,1,-0.3,1.7,3.7,/
CC(C)CN1CCN(Cc2ccc(CN3CCCCC3)s2)CC1CCO (configuration not stated),/,-2,/,/,/,/,/,-1.2,-30
O=C(Nc1ccncc1)c1ccccc1Cl,i,9,0.65,4,7,-0.4,2.0,1.3,-8
COc1cc(NC(=O)COC(=O)CNC(=O)c2cc(C)cc(C)c2)c(C)cc1[N+](=O)[O-],/,6,0.7,/,/,/,8.1,-1.4,-10
CC(NC(=O)C1CCN(C(=O)c2cccs2)CC1)c1ccc(S(N)(=O)=O)cc1 (configuration not stated),i,8,0.65,4,0,0.7,1.3,31,31
O=C(N/N=C/c1ccc[nH]1)c1cccc([N+](=O)[O-])c1,/,-6,/,/,/,/,/,-0.6,-1
COC(=O)C1=C(N)Oc2cc(C)n(Cc3ccccc3)c(=O)c2C1c1ccccc1 (configuration not stated),/,9,0.69,/,/,/,0.8,0.7,-3
N#Cc1ccccc1Oc1ccccc1C=O,i,4,0.65,23,13,1.6,1.6,-5.5,2
CN(CC(=O)NCCCc1ccccc1)Cc1ccc(Br)cc1,i,1,0.64,-25,-40,-5.4,3.7,-4.0,-8
CCOc1ccc(NC(=O)CC2C(=O)N(c3ccc(OC)cc3)C(=O)N2CCc2cccs2)cc1 (configuration not stated),i,-14,0.74,/,/,/,2.5,-4.3,10
CCCNC(=O)CSc1nc2ccc(OCC)cc2s1,i,6,0.7,28,21,8.8,4.0,-0.5,/
COc1ccc(NC(=O)c2ccc(OC(F)F)cc2)cc1Cl,/,13,0.67,/,/,/,2.9,-4.4,-3
COc1ccc(C(=O)NNC2=NS(=O)(=O)c3ccccc32)cc1OC,i,4,0.69,4,1,-2.4,10,3.8,2
CCN(C(=O)N(CC)c1ccccc1)c1ccccc1,i,-1,0.67,4,3,1.4,0.6,-1.0,18
O=C(Cc1cccs1)Nc1cccc(C(=O)Nc2ccco2)c1,/,-7,0.67,/,/,/,-0.1,-0.6,4
O=C(CN1C(=O)S/C(=C\c2ccc(O)c([N+](=O)[O-])c2)C1=O)Nc1ccc(N2CCOCC2)cc1,i,6,0.73,4,13,-1.2,11,1.5,-10
CCOc1ccc(C2C(C(N)=O)=C(C)Nc3ncnn32)cc1OC (configuration not stated),i,0,0.66,11,16,-0.9,0.3,-1.6,-34
O=C(COc1ccc([N+](=O)[O-])cc1)Nc1cc(C(=O)O)cc(C(=O)O)c1,i,-3,0.72,24,16,0.1,2.5,-2.5,12
CN(/N=C/c1cccnc1)C1=NS(=O)(=O)c2ccccc21,i,-8,/,10,-10,0.9,/,2.6,/
CCOC(=O)N1CCC(Nc2ncnc3c2cnn3-c2ccccc2)CC1,/,15,0.67,/,/,/,2.3,0.2,0
CCN(C[C@H]1N[C@@](CC)(C(=O)OC)[C@H]2C(=O)N(Cc3ccccc3)C(=O)[C@@H]12)S(=O)(=O)c1ccc(OC)cc1,i,-1,0.7,-1,17,0.8,1.9,0.6,3
Cc1ccccc1CS(=O)(=O)c1ccc(C(=O)N2CCC(C)CC2)cc1[N+](=O)[O-],i,-6,0.71,2,-3,-2.5,2.4,0.3,97*
O=C(Nc1ccc(N2CCOCC2)cc1)c1nc2ccccc2s1,i,2,0.69,3,7,5.9,4.9,1.7,-3
COc1ccc(OC)c(C2C3=C(CCCC3=O)Nc3c2c(=O)n(C)c(=O)n3C)c1 (configuration not stated),/,-4,0.7,/,/,/,1.5,-1.3,-2
CCOc1cc(NC(=O)c2ccccn2)c(OCC)cc1NC(=O)c1ccccc1,i,-7,0.75,10,9,0.7,-5.2,0.6,-5
CCN(CC)C(=O)Nc1c(C)n(C)n(-c2ccccc2)c1=O,/,-2,0.78,/,/,/,-2.9,3.5,-5
Cc1ccc(/C=C/c2ccc(=O)n(Cc3ccccc3Cl)n2)cc1,/,-10,0.71,/,/,/,/,2.2,5
O=C(c1ccc(Cl)cc1)N1CCC(=O)N(C(CO)Cc2ccccc2)CC1 (configuration not stated),i,0,0.71,1,8,-7.7,0.1,-1.5,-8
Cc1occc1C(=O)N/N=C/c1ccc(OCc2ccccc2)cc1,i,4,/,1,-4,-3.0,/,7.2,17
COc1ccc(C(C#N)N2CCCCC2)cc1OC (configuration not stated),i,5,0.63,5,5,2.7,-0.4,0.9,/
CCOCCCN1C(=O)CN(C2CCCCCC2)C(=O)C1c1ccc(OC)cc1 (configuration not stated),/,-5,0.7,/,/,/,3.6,1.5,-5
CCC(C(=O)OCC(=O)N(C)c1c(N)n(Cc2ccccc2)c(=O)[nH]c1=O)c1ccccc1 (configuration not stated),i,2,0.63,-1,4,-1.9,6.7,0.2,-5
CN(C)S(=O)(=O)c1cccc(NC(=O)COC(=O)/C=C/c2ccc3c(c2)OCO3)c1,i,-3,0.71,-27*,-3.2*,-2.2*,-8.2,0.2,/
CC1(C)C(c2ccccc2)=NC(c2ccc(F)cc2)N1O (configuration not stated),/,-2,0.68,/,/,/,7.4,0.4,/
Cc1ccc(C)c(S(=O)(=O)N2CCN(CC(=O)Nc3sccc3C#N)CC2)c1,i,1,0.68,0,-2,22,5.6,0.4,1
CCn1cc(CCC(=O)NC(C)c2ccccc2)c2ccccc21 (configuration not stated),i,4,0.69,-8,-1,2.4,0.3,-2.0,1
CC(=O)N1CCN(C(=O)c2cccc(NS(=O)(=O)c3ccc(Br)cc3)c2)CC1,i,1,0.66,6,6,-2.0,0.0,-0.2,2
